# Bm FixLJ act: activators of Burkholderia fixLJ two-component system, primary screen, B. multivorans, GFP reporter. B. multivorans fixK-promoter GFP reporter, 18 h; active compounds read high. z-score (no concentration beside the values). 0.3% of 29,000 active. AID 1918990, 2023;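 active = replicate mean overnight rise in green fluorescent reporter signal, 3 or more SD over negative controls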;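 also: score is relative to vehicle wells of the plate; 300 nL library stock went into each well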
# Numbers without * were called inactive; & = joins results of further samples.
# The first 2 entries (preview)
SMILES,Bm FixLJ act
Cc1n[nH]c(C)c1CCCNC(=O)NCc1cc2n(n1)CCN(C(=O)C(C)C)C2,-0.91
CCc1cccc(NC(=O)CCc2c(C)nc3c(c2C)c(=O)n(C)c(=O)n3C)c1,-1.4

# The listing, from the start:
SMILES,Bm FixLJ act
Cc1n[nH]c(C)c1CCCNC(=O)NCc1cc2n(n1)CCN(C(=O)C(C)C)C2,-0.91
CCc1cccc(NC(=O)CCc2c(C)nc3c(c2C)c(=O)n(C)c(=O)n3C)c1,-1.4
CC1=C(C(=O)Nc2ccccc2)C(c2cccs2)n2nc(SCc3ccccc3)nc2N1 (stereo not drawn),-2.1
CC1=C(CCN2CCn3nc(C(O)c4nccn4C)cc3C2)C(C)(C)CCC1 (stereo not drawn),-1
COC(=O)c1ccc(-c2nc3cc(NC(C)=O)ccc3o2)cc1,0.79
COc1ccc(CCNc2oc(COc3cccc(C)c3)nc2C#N)cc1OC,-1.2
CCC(C)Nc1nc2c(c(=O)[nH]c(=O)n2C)n1Cc1ccc(F)cc1 (stereo not drawn),-1.4
CCOC(=O)c1cnc2ccc(OC)cc2c1NCCc1ccccc1,-0.41
Cc1ccc(CNC(=O)Cc2coc3cc(C)cc(C)c23)cc1,-0.36
CCc1cccc(C)c1Nc1c(-c2ccc(SC)cc2)nc2sccn12,0.83
COc1ccc(C2C(CO)OCCN2C(=O)c2ccc(Cl)cc2C)cc1OC (stereo not drawn),0.77
CCCC(C)c1nnc(NC(=O)Cc2ccc(OC)cc2OC)s1 (stereo not drawn),-0.09
Cc1ccc(CNC(=O)C2CCN(S(=O)(=O)c3c(C)noc3/C=C/c3cccs3)CC2)cc1,2.4
Cc1oc(-c2cccc(Cl)c2)nc1CN1CCC(C(=O)NCCc2ccc(Cl)cc2)CC1,-1.1
COc1nc2c(cc1C(=O)N1CC(O)C(Cc3cnccn3)C1)CCC2 (stereo not drawn),-0.43
CCn1c(=O)c(=O)n(CC)c2cc(S(=O)(=O)Nc3ccc(C)cc3)ccc21,-0.04
Cc1ccc(-c2nc3nc(C)cc(C)n3c2Nc2ccc3c(c2)OCCO3)cc1,-0.48
CCCCOc1cccc(C(=O)Nc2cccc(-c3nc4ncccc4o3)c2C)c1,-1.4
COc1ccc(C(=O)N2CC(=O)Nc3ccc(Br)cc3C2c2ccc(F)cc2)cc1OC (stereo not drawn),-2.7
Cc1ccc(C(=O)Nc2nc3nc(-c4ccccc4)cc(=O)n3[nH]2)cc1,0.92
COc1cccc(OCc2cc(C(=O)NCCC(C)C)n[nH]2)c1,-1.2
CSc1ccc(CCNC(=O)CCc2c(C)nc3cc(-c4ccccc4)nn3c2C)cc1,0.05
Cc1c(CNCCCc2ccccc2)c(C(=O)O)c(C)n1Cc1cccc(Cl)c1,-1.5
CN(CCC(O)c1ccccc1)C(=O)NCc1cnc2c(c1)CCC2 (stereo not drawn),0.05
Cc1cccc(NC(=O)CN(C)S(=O)(=O)c2ccc3c(c2)CCC(=O)N3)c1C,-0.81
Cc1cc(C)c(NC(=O)Cn2c(=O)n(Cc3ccc4c(c3)OCO4)c(=O)c3ccccc32)c(C)c1,-2
CC(C)(NC(=O)Cc1cccc(OCCN)c1)c1cccc2ccccc12,-2.3
CCCc1cc(=O)[nH]c(SCC(=O)N2CCN(c3ccccc3)CC2)n1,-1.4
Cc1ccc(-c2noc(CSc3nnc(-c4ccc(Cl)cc4)n3C)n2)cc1,-0.76
c1cnc(N2CCN(Cc3ccc4c(c3)OCO4)CC2)nc1,-1.4
COc1ccccc1C(=O)Nc1ccc(OCc2cc(=O)n3cc(C)sc3n2)cc1,0.27
CCCCc1nc(Cl)c(CO)n1Cc1ccc(-c2ccccc2-c2nnn[nH]2)cc1,-0.87
Cc1ccc(Nc2nnc(-c3ccc(C)c(S(=O)(=O)N4CCOCC4)c3)c3ccccc23)c(C)c1,0.03
CN(C)C(=O)CCC(=O)N1CCc2c(ncnc2N2CCOCC2)C1,0.87
CCC(=O)N1CCc2cc(S(=O)(=O)NC(Cc3ccccc3)C(=O)NCc3ccccc3)ccc21 (stereo not drawn),-1.8
Cc1ccc(OCCn2c(CNc3cccc(C)c3)nc3ccccc32)cc1,2
COc1cccc(CNC(=O)c2c(O)nc3ccccn3c2=O)c1,-0.69
CC1=Nc2cc(C(=O)N3CCC(C)CC3)ccc2Sc2ccc(Cl)cc21,-0.96
COCCNC(=O)CCSc1nc(-c2ccc3c(c2)OCO3)cc(C(F)(F)F)n1,-2.1
CCCOCc1cc(CN2CCN(c3cccc(Cl)c3)CC2)c(O)c2ncccc12,-0.59
Cc1ccc(-c2nnc(SCC(=O)N3CCCc4ccccc43)o2)cc1,-0.65
CCOc1ccc(NC(=O)CN(c2ccc(C)cc2)S(=O)(=O)c2cccs2)cc1,-1.2
CC(C)Sc1ncc(Cl)c(C(=O)N(Cc2ccc(N(C)C)cc2)C2CCS(=O)(=O)C2)n1 (stereo not drawn),-1.6
CN(C)CC(C)(C)Cn1ccnc1-c1cc2n(n1)CCCNC2,-0.28
Cc1ccc2c(=O)cc(C(=O)N(Cc3ccccc3Cl)C3CCS(=O)(=O)C3)oc2c1 (stereo not drawn),0.31
O=C(NCCN1CCN(c2cccc(Cl)c2)CC1)Nc1ccccc1,-1.2
COc1ccc(C2=C(Nc3ccc(C)cc3C)c3ccccc3C2=O)cc1,0.01
O=C(Nc1c(C(=O)c2ccccc2)oc2ccccc12)c1ccc(F)cc1,-0.03

# Given field by field: entries from further up
CC(C)Sc1ncc(Cl)c(C(=O)N(Cc2ccc(N(C)C)cc2)C2CCS(=O)(=O)C2)n1 (stereo not drawn)
  Bm FixLJ act: -1.6
CN(C)CC(C)(C)Cn1ccnc1-c1cc2n(n1)CCCNC2
  Bm FixLJ act: -0.28
Cc1ccc2c(=O)cc(C(=O)N(Cc3ccccc3Cl)C3CCS(=O)(=O)C3)oc2c1 (stereo not drawn)
  Bm FixLJ act: 0.31

# Later entries.
SMILES,Bm FixLJ act
O=C(Cn1c(=O)c2ccccc2n(CC(=O)Nc2ccc(Cl)cc2)c1=O)NCCc1ccccc1,-0.09
Cc1ccc(CCNC(=O)CN2CCN(Cc3ccc(Cl)cc3)C2=O)cc1,-2.5
CCc1ccccc1NC(=O)CN(c1cc(C(F)(F)F)ccc1Cl)S(=O)(=O)c1ccccc1,-0.89
O=c1[nH]cc(F)c(=O)[nH]1,-3.9&-3.8
Cc1cccn2cc(C(=O)NCCc3nncn3C(C)C)nc12,-0.96
N#Cc1nc(/C=C/c2ccc(F)cc2)oc1NCc1ccc(F)cc1,-0.77
COC(=O)c1sc2ncccc2c1-n1c(C)ccc1C,0.68
CC(C)CCNC(=O)C(Cc1ccccc1)NS(=O)(=O)c1ccc2c(c1)c(=O)n(C)c(=O)n2C (stereo not drawn),-1.8
COc1ccc(CNC(=O)c2cnc3cc(C)ccn3c2=O)cc1,-1.5
Cc1ncnc(C)c1C(=O)N1CCCN(C(=O)c2ccc(N)nc2)CC1,-1.2
O=C(Cc1c(C(=O)O)[nH]c2ccccc12)Nc1cccc(C(F)(F)F)c1,-0.73
Cc1ccc(C)c(Cn2cc(S(=O)(=O)c3ccc(Cl)cc3)c(=O)c3cc(F)ccc32)c1,-0.56
COc1cccc2c1C(=O)c1c(O)c3c(c(O)c1C2=O)C[C@@](O)(C(=O)CO)C[C@@H]3O[C@H]1C[C@H](N)[C@H](O)[C@H](C)O1,-6.8
CCc1ccccc1NC(=O)C1(S(=O)(=O)c2ccc(Cl)cc2)CC1,-1.4
CCn1c(Cn2cccn2)nnc1C1CCN(C(=O)Cc2cccnc2)CC1,0.64
CCOCCCNC(=O)c1c(NC(=O)c2cc(=O)c3cc(C)c(C)cc3o2)sc2c1CCC2,1.1
CCCC1CN(C(=O)c2ccc3c(c2)nc(N2CCOCC2)n3C)CC1N(C)C (stereo not drawn),-0.06
Cc1ncnc(C)c1C(=O)NCC1CCN(C(=O)c2cc(C#N)c[nH]2)CC1,0.56
CCc1noc(C2CCCN2C(=O)c2cccn2C(C)C)n1 (stereo not drawn),0.13
COc1ccc(C2CC(=O)N(Cc3cccc(F)c3)c3ccccc3S2)cc1 (stereo not drawn),1.3
COc1cccc(NC(=O)CN(C)S(=O)(=O)c2cccs2)c1,-0.59
COc1c(Cl)cc(C(=O)Nc2cc(-c3nc4ccccc4[nH]3)ccc2C)cc1Cl,1.1
Cc1ccc2oc(=O)c3cnn(CC(=O)N4CCN(c5ccccc5F)CC4)c3c2c1,-0.59
COc1ccc(NC(=O)c2ccc3snnc3c2)cc1OC,-1.9
CCc1ccc(CN2CCc3c(C(=O)N(C)CCO)csc3C2)nc1,-1.1
O=C(Nc1ccc(Cl)cc1)c1ccc2c(c1)N(Cc1ccccc1)CCS2,0.25
Cc1ccc(CNC(=O)NCc2cc3n(n2)CCN(C(=O)C2CCC2)C3)cc1,-0.74
O=C(CN1C(=O)COc2ccc(S(=O)(=O)N3CCCC3)cc21)N1CCN(c2ccccc2F)CC1,-0.22
CC1=C(C(=O)Nc2ccc(Cl)cc2)C(c2ccccc2)n2ncc(C(=O)Nc3ccccc3)c2N1 (stereo not drawn),2.1
CCN1CCOC(=O)C1CC(=O)Nc1cc(Cl)ccc1C (stereo not drawn),-0.38
CC1(C)CC(=O)c2cc(-c3nc(-c4ccc(F)cc4)cs3)c(=O)[nH]c2C1,-1.5
O=C(CSc1nc(-c2ccc(F)cc2)[nH]c1-c1ccc(F)cc1)Nc1ccc2c(c1)OCO2,0.19
CCOc1ccccc1-c1noc(CSc2nnc(-c3ccccc3)n2-c2cccc(C)c2)n1,-1.3
Cc1nc2c(C(=O)NCCSc3nnnn3C)cccc2[nH]1,0.41
CCCN(CCC)CCc1cccc2c1CC(=O)N2,-0.72
Cc1ccc(CN2CCSc3ccc(C(=O)N4CCN(c5cc(C)ccc5C)CC4)cc32)cc1,0.76
O=C(Cn1c(=O)c2ccccc2n(CC(=O)Nc2ccc(F)cc2F)c1=O)NCCc1ccccc1,-2.6
Cc1ccc(C(=O)Nc2ccccc2F)cc1S(=O)(=O)N1CCOCC1,-1.4
COc1ccccc1CC(=O)N1CCCN(C(=O)CCC2NC(=O)NC2=O)CC1 (stereo not drawn),-1.3
CN1CCCn2nc(C(=O)NCCCCc3ccccc3)cc2C1,-1.2
Cc1ccccc1Cn1c(=O)n(Cc2ccco2)c(=O)c2sc3ccccc3c21,-0.51
COc1ccc2c(c1)cc1c(=O)n(CC(=O)NC(C)C)nc(C)n12,-0.29
COc1nnc(-c2ccc(N3CCCCC3)c(NC(=O)c3ccc(Cl)cc3)c2)c2ccccc12,0.63
CCOC(=O)c1cnc2c(C)c(Cl)ccc2c1Nc1ccc(N2CCOCC2)cc1,-1
CC(C)COc1ccc(C(=O)Nc2cccc(-c3nc4ccccc4[nH]3)c2)cc1,1.8
COc1ccccc1CN1CC2c3ccccc3OC[C@]2(C(=O)O)C1 (stereo partly drawn),-1.2
CCc1ccccc1-n1c(N)c(C(=O)OC)c2nc3ccccc3nc21,-1.5
Cc1ccc(C2(O)CCN(Cc3cc(C#CCO)cs3)CC2)nc1,-0.43
CCC(NC(=O)Cc1ccc(OC)cc1OC)c1ccc(C)cn1 (stereo not drawn),-0.76
O=C(NCc1ccccc1)C1CCCN(S(=O)(=O)c2cccc3nsnc23)C1 (stereo not drawn),0.01
CCCCCNC(=O)c1ccc2c(=O)n(CCc3ccccc3)c(=O)[nH]c2c1,0.99
Cc1cc(OC(F)F)ccc1NC(=O)NC1COCC1N1CCCCC1 (stereo not drawn),-3.4
Cc1nc2ccc(S(=O)(=O)N(C)CC(=O)Nc3ccc(C(C)C)cc3)cc2s1,1.4
CCN(CCCNC(=O)c1cc(Nc2ccc(OC)cc2)nc2ccccc12)c1cccc(C)c1,-0.19
O=C(CN1C(=O)CC(c2ccco2)Sc2ccccc21)Nc1cccc(C(F)(F)F)c1 (stereo not drawn),-0.1
O=C(CCN1CCN(CCO)CC1)Nc1ccc(Br)cc1,1.1
COc1ccc(OC)c(NC(=O)c2cn(CC(C)C)c(=O)c3cc(OC)c(OC)cc23)c1,-1.1
CCOc1cc(CNC(=O)CCCn2c(=O)c3cccn3c3cccnc32)cc(OCC)c1OCC,-1.2
O=C(NC(c1cnc2ccccc2c1)C1CC(O)C1)c1ccc(CO)cc1 (stereo not drawn),0.5
Cc1cccc(N(CC(=O)NCCSc2ccc(Cl)cc2)S(C)(=O)=O)c1C,-2.2

# The list goes on:
SMILES,Bm FixLJ act
COc1ccc(C2c3cc(OC)c(OC)cc3CC(=O)N2c2cccc(C#N)c2)cc1 (stereo not drawn),-1.7
CCc1ccc(OC(C)C(=O)Nc2c(C(=O)c3ccccc3)oc3ccccc23)cc1 (stereo not drawn),0.17
CCCNc1ncc(CN2CCCC(c3nc4c(C)cccc4[nH]3)C2)cn1 (stereo not drawn),-2
Cc1cc(C)c2oc(-c3cc(NC(=O)Cc4ccccc4)ccc3Cl)nc2c1,-0.8
COc1ccc(-c2c(C)nn3c(-c4ccccc4)cc(-c4ccccc4)nc23)cc1OC,1.5
CSc1ccc(CNC(=O)C2CCCN(S(=O)(=O)N(C)c3ccc(F)cc3)C2)cc1 (stereo not drawn),-1.8
O=C(NCc1ccc(F)cc1)c1ccc2c(c1)N(Cc1ccc(F)cc1Cl)C(=O)CS2,0
CC(C)(C)CC(=O)N1CCCC(c2nccn2Cc2cscn2)C1 (stereo not drawn),-0.88
CCCSc1nc2ccccc2c(=O)n1-c1ccccc1OC,-0.92

# Seven records drawn at random from those above, as already listed:
SMILES,Bm FixLJ act
CSc1ccc(CCNC(=O)CCc2c(C)nc3cc(-c4ccccc4)nn3c2C)cc1,0.05
COC(=O)c1sc2ncccc2c1-n1c(C)ccc1C,0.68
CC(C)CCNC(=O)C(Cc1ccccc1)NS(=O)(=O)c1ccc2c(c1)c(=O)n(C)c(=O)n2C (stereo not drawn),-1.8
CCC(=O)N1CCc2cc(S(=O)(=O)NC(Cc3ccccc3)C(=O)NCc3ccccc3)ccc21 (stereo not drawn),-1.8
CCCOCc1cc(CN2CCN(c3cccc(Cl)c3)CC2)c(O)c2ncccc12,-0.59
Cc1ccc(OCCn2c(CNc3cccc(C)c3)nc3ccccc32)cc1,2
Cc1c(CNCCCc2ccccc2)c(C(=O)O)c(C)n1Cc1cccc(Cl)c1,-1.5

# The list is partial; rates above refer to the full screens.
